Screening results as filed in PubChem.
Sa RN4220 lethal: growth inhibition of S. aureus RN4220, primary screen, OD600. AID 1259311, 2017. inhibition, % (no concentration beside the values). 16 h. 330,000 compounds, 0.33% hits;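 active = z-score of -3 or lower and OD600 up to 0.18 on both plates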;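 also: plate controls were untreated cells for no effect and reference antibiotic for full effect; stock transfer was 100 nL into about 80 µL; one replicate is shown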
BJeLR viability: MLPCN primary cell-based screen for lethality selective to Ras in HRASV12 cells. BJeLR (HRASV12) viability, CellTiter-Glo ATP luminescence, 48 h; reference of the scale not given here. inhibition, % (test concentration not listed). 300,000 compounds, 0.17% hits. AID 1554, 2009;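 active = replicate mean above 50%; inconclusive = above 50% but judged a plate artefact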;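 also: 50 nL library stock added to about 25 µL; numbers are from one replicate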
Mtb hypoxia inh: PubChem AID 1159583; M. tuberculosis hypoxia-regulated fluorescent reporter, fluorescence; fluorescence inhibition, % (no concentration beside the values); 300,000 compounds, 0.1% hits;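 active = 35 to 45% if threefold the growth effect, above 45% if 1.5-fold the growth effect; inactive = the rest, general growth blockers included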;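 also: wells of about 50 µL received 100 nL stock; 0% = vehicle wells and 100% = reference inhibitor wells; whole bacteria with a GFP reporter of the hypoxia response; strong numbers were not always called active; many hits fall short of the cut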
Bead autofluor: counter-screen for toxin protease inhibitors: compound fluorescence. compound autofluorescence counterscreen, microsphere flow cytometry; hits give high values. fluorescence intensity (test concentration not listed). 360,000 compounds, 3.1% hits;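 active = at least 3 SD above the mean of all compounds, about 16000 in these data; inconclusive = too few beads counted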;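 also: 100 nL of 1 mM stock went into each well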
Sa ugtP lethal: growth inhibition of ugtP-null S. aureus, primary screen, RN4220 ugtP deletion, OD600. 330,000 compounds, 0.54% hits. growth inhibition, % (concentration not given with the values). AID 1259309, 2017. 16 h; some inactives read as strong as hits;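 active = z-score under -3 and OD600 up to 0.15 on both plates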;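 also: plate controls were untreated wells for no effect and antibiotic for full effect; wells of about 80 µL received 100 nL stock; the first replicate is given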
PrP UTR inh: inhibition of PrP 5' UTR reporter expression. 340,000 compounds, 0.35% hits. cell-based PrP 5' UTR mRNA reporter, plate reader. inhibition, % (concentration not given with the values);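 active = every replicate at 50% or more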;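 also: 0 = median of the neutral control wells; tested in H4 reporter cells; numbers are from one replicate; inactives centre near -14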
Mtb hypoxia inh growth: also measured in Mtb hypoxia inh; calls as there; growth inhibition, %; measured here: M. tuberculosis growth (absorbance);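 0% = vehicle and 100% = reference antibiotic; read after six days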
An asterisk follows results filed as active; ? = inconclusive; · = no result given. Rows were taken by chance; about 4% have a hit in one of these screens.

The first 5 entries, to show the layout:
SMILES	Sa RN4220 lethal	BJeLR viability	Mtb hypoxia inh	Mtb hypoxia inh growth	Bead autofluor	Sa ugtP lethal	PrP UTR inh
Cc1ccc(COCCN2CCN(S(=O)(=O)c3ccc(C)cc3)CCC2=O)cc1	-11	0	10	-3	3013	-2	-15
CN(C)CCCNC(=O)C1(O)c2cc(Br)ccc2NC(=O)N1c1c(F)cccc1F (stereo not given)	1.9	-2	12	-2	3891	-2	-13
O=C1CC(O)(C(F)F)Oc2ccc3ccccc3c21 (stereo not given)	1.1	15	·	·	2617	-13	-29
CCOC(=O)N1CCN(C(=O)C2CCN(S(=O)(=O)c3ccc(F)cc3)CC2)CC1	4.6	9	8	-2	2281	14	-6
O=C(CNS(=O)(=O)c1ccccc1)OCC(=O)c1c[nH]c2ccccc12	4.9	·	-1	4	10869	-1	-4

Main list, repeating the preview:
SMILES	Sa RN4220 lethal	BJeLR viability	Mtb hypoxia inh	Mtb hypoxia inh growth	Bead autofluor	Sa ugtP lethal	PrP UTR inh
Cc1ccc(COCCN2CCN(S(=O)(=O)c3ccc(C)cc3)CCC2=O)cc1	-11	0	10	-3	3013	-2	-15
CN(C)CCCNC(=O)C1(O)c2cc(Br)ccc2NC(=O)N1c1c(F)cccc1F (stereo not given)	1.9	-2	12	-2	3891	-2	-13
O=C1CC(O)(C(F)F)Oc2ccc3ccccc3c21 (stereo not given)	1.1	15	·	·	2617	-13	-29
CCOC(=O)N1CCN(C(=O)C2CCN(S(=O)(=O)c3ccc(F)cc3)CC2)CC1	4.6	9	8	-2	2281	14	-6
O=C(CNS(=O)(=O)c1ccccc1)OCC(=O)c1c[nH]c2ccccc12	4.9	·	-1	4	10869	-1	-4
COc1ccc(/C=C(\NC(=O)c2ccccc2)C(=O)NCc2cccnc2)cc1	1.7	-5	-3	-8	3994	3	0
O=C(NC1CCCCC1)C(c1ccc2ncccc2c1)N(Cc1cccs1)C(=O)c1cccs1 (stereo not given)	2.9	-10	-8	3	8101	31	-16
COC(=O)Nc1sc2c(c1C(=O)NCc1ccco1)CCC2	1.2	-4	7	5	20826*	4	-16
CCOC(=O)Cc1csc(NC(=O)c2cc(OC)cc(OC)c2)n1	-0.1	10	1	19	5121	6	-16
COc1cc(C(=O)NN=Cc2ccc(OC(=O)c3ccccc3Cl)c(OC)c2)ccc1O	4.1	·	19	12	·	5	·
O=C(CCCCCN1C(=O)c2cccc3cccc(c23)C1=O)NCCCO	-1.2	0	-1	2	4056	9	-17
CC(OC(=O)c1ccc2noc(-c3ccccc3)c2c1)C(N)=O (stereo not given)	4.4	-1	-1	-6	3824	7	-11
CC(Oc1ccccc1F)C(=O)NC1CCS(=O)(=O)C1 (stereo not given)	3.0	2	0	-7	4724	2	-5
CCCC(=O)NNC(=O)c1c(O)c2ccccc2[nH]c1=O	4.4	-3	0	-5	4388	3	-7
CCCC(=O)C1=C(O)C(C(=O)OC)C(C)(C)CC1=NCCCCCC(=O)O (stereo not given)	2.2	5	13	8	4310	4	11
CC1CN(C(C)CO)C(=O)c2cccc(NS(=O)(=O)c3ccccc3)c2OC1CN(C)C(=O)Nc1ccc(C(F)(F)F)cc1 (stereo not given)	1.4	·	5	5	·	-37	·
O=C(NC1CC1)C1=C[C@@H](c2ccc(C(F)(F)F)cc2)C[C@@H](OCCCCO)O1	·	-2	·	·	3877	·	-12
CCCCC=CC(NC(=O)c1ccc(-c2ccccc2)cc1)c1ccccc1 (stereo not given)	3.3	·	7	6	·	-13	·
S=c1[nH]nc(COc2ccccc2)n1/N=C/c1ccc(Br)s1	·	-7	·	·	9989	·	-13
COc1ccc(S(=O)(=O)N(CC(=O)NC2CC2)Cc2ccccc2)cc1	2.5	2	7	16	5697	1	-31
O=C(COC(=O)C1CCN(S(=O)(=O)c2cccs2)CC1)c1ccc2c(c1)OCCO2	-1.5	-5	·	·	4416	2	1
COc1ccc(CC(=O)NN=C(C)c2ccc(Br)s2)cc1	2.3	·	-13	-5	·	-3	·
CCOc1ccc(NS(=O)(=O)c2cc(C(=O)NCCCN3CCCC3=O)ccc2C)cc1	-2.2	·	-2	8	?	0	-7
Clc1cccc(Cl)c1Cn1cc(Br)cn1	8.2	3	-4	1	16279*	1	-21
CCN(CC)S(=O)(=O)c1ccc(Cl)c(C(=O)Nc2cc(C)nn2-c2ccccc2C(F)(F)F)c1	1.6	9	-2	4	·	-1	·
(next part)
SMILES	Sa RN4220 lethal	BJeLR viability	Mtb hypoxia inh	Mtb hypoxia inh growth	Bead autofluor	Sa ugtP lethal	PrP UTR inh
O=C(NCCc1cccc(Cl)c1)c1ccc2c(c1)OCO2	-0.4	-12	15	2	5620	-4	-15
COC(=O)CCC(=O)N1CCCC(CO)(Cc2ccccc2)C1 (stereo not given)	2.0	-2	8	7	2180	7	-69
COc1ccc(NC(=O)CN2C(=O)CSC(C)C2=O)cc1 (stereo not given)	11	4	13	6	6194	6	-4
Cc1ccc(OCCSc2cc(C)nc(N)n2)cc1	31	7	-4	-7	3233	15	-21
COc1ccccc1NC(=O)NNC(=O)COc1ccc2ccccc2c1	0.9	-8	-4	-3	6354	9	-10
CC(C)NC(=O)COc1ccc(Cl)cc1Cl	2.2	3	5	6	10864	1	-13
N#Cc1ccc(C(=O)CSc2n[nH]c(=O)n2Cc2ccco2)cc1	4.4	-6	10	0	3619	1	-34
O=C(NCc1ccccc1)C(c1ccc(F)cc1)N(Cc1ccco1)C(=O)c1ccccn1 (stereo not given)	1.8	5	-3	12	4365	-5	-7
O=C(NCCN1CCCCCC1)C1CCC(CNS(=O)(=O)c2cccc3cccnc23)CC1 (stereo not given)	-0.3	-1	·	·	6193	11	16
COc1ccc(CCNc2nc(-c3cccnc3)cs2)cc1OC	2.0	-12	7	4	3450	-2	-18
O=C1c2ccccc2N2C(=O)c3ccccc3C2N1Cc1ccccc1 (stereo not given)	3.8	-3	5	2	4155	-8	-17
CCCSc1nc(N)c2c3c(sc2n1)CN(C)CC3	12	9	1	12	?	4	3
O=C(COC(=O)C1(c2ccc(F)cc2)CCCC1)N1CCc2ccccc21	-5.6	0	1	4	1895	-11	5
Cc1cc(Br)ccc1OCCCCNC(C)(C)C	-1.5	-19	·	·	3965	4	-24
Cc1cccc2c(=O)c(C(=O)N3CCCCCC3)c[nH]c12	-0.1	-12	-11	1	4305	-1	-5
Cc1ccc2c(c1)C1C[N+](C)(CC(=O)c3ccccc3)CCC1N2C(=O)c1ccccc1Cl (stereo not given)	-2.6	·	1	16	3910	-13	-9
Nc1c(C(=O)O)cnn1-c1ccccc1	5.1	4	-5	8	4693	10	-30
CN(C(=O)COC(=O)COc1ccccc1Cc1ccccc1)c1ccccc1	3.1	2	11	1	·	-1	-18
O=C1NC2(CCCCC2)CO1	6.3	-8	10	1	4152	0	-7
CNC(=S)NNC(=O)c1ccc(=O)n(Cc2cccc(C(F)(F)F)c2)c1	-6.8	3	0	3	4324	-2	-30
COC(=O)Nc1ccc(S(=O)(=O)N2CCN(C)CC2)cc1	7.8	2	·	·	3352	6	-29
Clc1ccc(-c2ccn[nH]2)cc1	1.8	5	5	6	4570	2	-24
CCCN1C(=O)/C(=C\C=C2/Sc3ccccc3N2CC)SC1=S	5.1	·	6	5	·	8	·
C/C(=N\Nc1ccccc1)c1c(O)n(-c2ccccc2)c(=O)[nH]c1=O	1.8	-12	5	4	3519	6	-18
O=C(c1cc2cc(Cl)ccc2[nH]1)N1CCN(Cc2ccc3c(c2)OCO3)CC1	-6.6	3	-4	-1	5487	-12	-9

Next part, starting with the last three of the part before.
SMILES	Sa RN4220 lethal	BJeLR viability	Mtb hypoxia inh	Mtb hypoxia inh growth	Bead autofluor	Sa ugtP lethal	PrP UTR inh
CCCN1C(=O)/C(=C\C=C2/Sc3ccccc3N2CC)SC1=S	5.1	·	6	5	·	8	·
C/C(=N\Nc1ccccc1)c1c(O)n(-c2ccccc2)c(=O)[nH]c1=O	1.8	-12	5	4	3519	6	-18
O=C(c1cc2cc(Cl)ccc2[nH]1)N1CCN(Cc2ccc3c(c2)OCO3)CC1	-6.6	3	-4	-1	5487	-12	-9
Cc1cc(S(=O)(=O)N2CCCC(N3CCOCC3)C2)c(C)cc1Cl (stereo not given)	-0.9	-1	0	-2	4736	-1	15
CC(C)=CCc1c(O)cc2oc3c(CC=C(C)C)c(O)c(O)c(CC=C(C)C)c3c(=O)c2c1O	48	3	·	·	5450	61	1
Nc1ncn[nH]1	5.4	-10	-7	6	5804	18	0
CCOC(=O)C(C)S(=O)(=O)c1ccc(C(F)(F)F)cn1 (stereo not given)	3.4	-4	·	·	2646	3	-13
N#Cc1ccccc1NC(=O)CN1CCOCC1	-0.2	-5	6	0	4601	2	-16
CCOC(=O)c1c(-c2ccc(Cl)cc2)csc1NC(=O)CNCc1ccco1	-3.6	-9	5	1	4200	13	-24
COc1ccccc1N1CCN(C(=O)CSc2nnc(-c3ccoc3C)o2)CC1	-1.0	-3	·	·	3695	5	-9
O=C(Nc1ccc(F)cc1F)c1cccn(Cc2ccccc2)c1=O	-1.3	11	10	8	4316	4	0
CCOC(=O)C1CCCCN1C(=O)c1cc2ccc(OC)cc2c2cc(OC)c(OC)cc12 (stereo not given)	-1.9	·	-13	1	3058	54	-16
O=C(c1cnn(-c2nc3ccccc3s2)c1)c1ccccc1O	0.8	0	·	·	3231	4	-95
CC(OC(=O)Cc1coc2cc3c(cc12)CCC3)C(=O)NC(N)=O (stereo not given)	2.6	3	-1	-1	3138	4	-18
CC(C)(C)C1C=C(C(=O)N2CCOCC2)OC(OCCCCO)C1 (stereo not given)	3.6	·	1	3	·	1	·
O=C(NCC1CCCO1)c1cc2c([nH]c3ccccc32)c(-c2ccc(F)cc2)n1 (stereo not given)	-2.7	45	·	·	5162	0	-45
CCOc1ccc(C(=O)N2CCc3ccccc32)cc1OCC	3.9	-10	9	5	3411	6	-28
O=C(COc1ccc2ccccc2c1)Nc1ccc(S(=O)(=O)N2CCCCCC2)cc1	-4.7	21	·	·	3448	0	-11
COc1cc(C(=O)NNC(=O)CN2C(=O)NC(C)(c3ccc(C)cc3)C2=O)cc(OC)c1OC (stereo not given)	-0.9	·	2	-8	3927	8	-26
Cc1cc(Cl)ccc1C(=O)C1CCCN(Cc2ccon2)C1 (stereo not given)	3.0	7	15	2	4040	7	-22
Cc1ccc(C(=O)Nc2cccc(Oc3ccccc3)c2)o1	-1.2	-6	0	15	3319	-8	-37
O=C1CCC(C(=O)N2CCSCC2)CN1CCc1cccc(F)c1 (stereo not given)	-4.5	7	-4	0	6014	0	-10
O=C(c1cnn2c(C(F)(F)F)cc(-c3ccc(F)cc3)nc12)N1CCc2ccccc2C1	-2.8	2	-6	3	6589	8	-11
Cc1cccc(NC(=O)c2ccc(OC3CSC3)cc2)c1	0.2	12	7	4	8732	2	-104
CCN1C(Nc2ccccc2)=NC[C@@H]1Cc1ccccc1	·	-6	·	·	3378	·	2
Cc1[nH]c2ccccc2c1/C=N/n1cnnc1	·	-8	·	·	2932	·	-10
COc1ccc(C=NN2CCN(C3c4ccccc4-c4ccccc43)CC2)cc1OC	-15	·	2	7	·	-15	·
COc1ccc(-c2c(-c3cc(OC)cc(OC)c3)sc3ccc(OC)cc23)cc1	-8.5	·	9	11	2879	92*	-6
(cont.)
SMILES	Sa RN4220 lethal	BJeLR viability	Mtb hypoxia inh	Mtb hypoxia inh growth	Bead autofluor	Sa ugtP lethal	PrP UTR inh
O=c1[nH]c(=S)n(CCC2=CCCCC2)c(O)c1/C=N/N1CCOCC1	-0.4	8	11	2	3669	1	·
COc1cc2c(cc1NC(=O)c1ccco1)CCCC2	2.3	6	4	7	11159	-3	-52
CC(=O)Nc1ccc(NC(=O)CC(C)=NNC(=O)C(=O)Nc2ccc(C)c(Cl)c2)cc1	2.9	·	0	-7	·	8	·
O=C(COC(=O)COc1ccccc1F)NCCc1ccc(F)cc1	1.9	·	2	6	?	-1	1
COc1cc(Cl)ccc1OCc1cc(C(=O)NCc2cc(C(C)C)no2)no1	-0.9	1	11	-25	6078	8	-101
COc1ccccc1-n1c(=O)[nH]c2c(C(N)=O)nc(CC(C)C)nc21	6.3	-6	3	5	4335	8	-7
O=C(CN1C(=O)NC2(CCCCC2)C1=O)NCC(=O)Nc1ccc(F)c(F)c1	3.1	5	1	-3	?	2	-7
CCCCOc1ccc(CSc2nc(C)[nH]c2[N+](=O)[O-])cc1[N+](=O)[O-]	1.3	16	-5	3	6081	1	·
O=C(CC(NC(=O)c1ccccc1)c1ccccc1)Nc1cccc2ccccc12 (stereo not given)	4.5	7	2	-5	2144	1	-9
C=CC[N+](C)(C)CC(=O)OCc1ccccc1	1.8	5	8	14	2222	4	-50
